Bioassay records from PubChem.
Hsc70 = small molecules displacing fluorescent ligand from Hsc70 – biochemical, fluorescence polarization, primary screen (AID 568). displacement, % at 20 µM; hits with a dose series show IC50 in µM. 83,000 tested, under 10 active. Hsc70 fluorescence polarization, probe displacement; higher % means a stronger effect; strong numbers were not always called active;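 active = displacement above 50% without optical interference and an IC50 on retest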;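 note: ATPase domain with a fluorescein-tagged ATP probe; 0% = vehicle and 100% = excess ADP; read after one hour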
MT1-MMP reporter = MT1-MMP gene expression reporter suppression – cell-based, luciferase reporter, luminescence (AID 618) | MT1-MMP promoter luciferase reporter cells, luminescence | calls from a first round at 10 µM; hits with a dose series show EC50 in µM | 87,000 compounds, 0.62% hits;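 active = over half of the reporter light lost at 10 µM or EC50 under 50 µM; inactive = the rest and hits that failed the dose series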;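 note: actives suppress MT1-MMP promoter-driven transcription so potencies describe inhibitors; HT1080 fibrosarcoma cells; overnight exposure; toxic or luciferase-blocking compounds were not removed from the actives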
WNV NS2B-NS3 inh = inhibitors of West Nile virus NS2B-NS3 protease. 65,000 compounds, 0.18% hits. z-score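 (tested at a level between 10 and 100 µM)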. WNV NS2B-NS3 protease, fluorogenic substrate Ex360/Em465; active compounds read low. AID 577;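 active = z-score at -3 or under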;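 note: score is relative to mean and spread of the compound wells of a plate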
Target sequence (P06935 1371-1501 limits assumed): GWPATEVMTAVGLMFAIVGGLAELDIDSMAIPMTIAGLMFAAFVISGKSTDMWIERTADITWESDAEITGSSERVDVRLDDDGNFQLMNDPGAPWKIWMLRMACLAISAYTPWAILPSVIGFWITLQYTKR
Target sequence (P06935 1502-1679 limits assumed): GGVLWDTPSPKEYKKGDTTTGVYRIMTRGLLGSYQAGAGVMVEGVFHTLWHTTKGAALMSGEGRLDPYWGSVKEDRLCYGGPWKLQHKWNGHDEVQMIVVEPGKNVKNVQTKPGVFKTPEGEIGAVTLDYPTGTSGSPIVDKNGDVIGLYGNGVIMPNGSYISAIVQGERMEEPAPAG
The depositor's hits bear a star; i = inactive; . = no result given. Not all compounds are listed; count on the stated rates, not on these rows.

SMILES | Hsc70 | MT1-MMP reporter | WNV NS2B-NS3 inh
Cn1c(=O)c2c(nc(NCc3ccc4c(c3)OCO4)n2Cc2ccccc2F)n(C)c1=O | 3.8% | i | -0.44
COc1cccc(NC(=O)c2ccc3c(c2)N(CC(=O)N2CCCCC2)C(=O)C(C)(C)O3)c1 | -0.7% | i | -0.87
COc1ccc(CN2CCOCC2)cc1OC | -0.2% | i | .
Cc1cc(OCC(=O)NCCN2CCOCC2)cc(C)c1Br | -10% | i | -0.14
O=C1CN(c2nc3ccccc3n3cnnc23)CC(=O)N1CCc1ccccc1 | 1.9% | i | -0.65
CCOC(=O)N1CCN(S(=O)(=O)c2ccc(OC)c(Cl)c2)CC1 | 6.7% | i | -1.4
CCC(C)N(C(=O)COC(=O)c1cn(CC)c2nc(C)ccc2c1=O)C1CCS(=O)(=O)C1 (stereo unspecified) | 3.5% | i | 0.75
CCNc1ccc(C(=O)OCC)cc1NC(=O)c1cccc(S(=O)(=O)N2CCOCC2)c1 | -2.0% | i | -1.4
CC1CCCC(C)N1S(=O)(=O)c1ccc(NC(=O)c2ccccc2C(=O)N2CCOCC2)cc1 (stereo unspecified) | 2.7% | i | -1.3
Cc1cc2ncn(S(=O)(=O)c3ccc(S(=O)(=O)N4CCCCCC4)cc3)c2cc1C | -4.5% | i | .
c1ccc(-c2nc(N3CCCCCC3)c3ccccc3n2)nc1 | -3.1% | i | -1.1
COC(=O)c1ccccc1NC1c2ccccc2C(=O)N1c1cccnc1 (stereo unspecified) | 6.9% | i | -0.59
CCOc1ncccc1C(=O)OCC(=O)Nc1cc(C(=O)OC)ccc1C(=O)OC | 1.6% | i | 2.3
COc1cc(S(=O)(=O)NC2CCCCC2C)ccc1Cl (stereo unspecified) | -2.5% | i | 0.34
CN(Cc1nc2ccccc2n1C)S(=O)(=O)c1ccc(F)cc1 | 9.8% | i | -0.93
CC(C)(c1ccccc1)c1ccc(OCCCNCCO)cc1 | 2.6% | i | .
CN1C(=S)SC(N(O)C(=O)NC2CCCCC2)C1(C)C (stereo unspecified) | -2.7% | i | -0.3
CN(C)CCNc1nc2c(c(=O)[nH]c(=O)n2C)n1CCCc1ccccc1 | 6.6% | i | 2.7
C=CCn1c(Cc2cccs2)nnc1SCC(=O)c1cccc(Br)c1 | -8.8% | i | 0.16
CC(C)CC(=O)N1CCN(C(=O)CCC2CCCC2)CC1 | -4.5% | i | -1.3

Continued (three carried over from the part before).
SMILES | Hsc70 | MT1-MMP reporter | WNV NS2B-NS3 inh
CN(C)CCNc1nc2c(c(=O)[nH]c(=O)n2C)n1CCCc1ccccc1 | 6.6% | i | 2.7
C=CCn1c(Cc2cccs2)nnc1SCC(=O)c1cccc(Br)c1 | -8.8% | i | 0.16
CC(C)CC(=O)N1CCN(C(=O)CCC2CCCC2)CC1 | -4.5% | i | -1.3
CCn1c(Cc2cccs2)nnc1SCC(=O)Nc1ccc(OC)c(OC)c1 | -1.2% | i | 0.14
CC1(C)CCCN(C(=O)c2coc(=O)c(Br)c2)C1 | 5.5% | i | -0.54
CC1CN(S(=O)(=O)c2cccc(C(=O)OCC(=O)Nc3ccc4c(c3)OCO4)c2)CC(C)O1 (stereo unspecified) | 0.9% | i | -0.89
COc1ccc(CCNC(=O)c2nnn(CC(=O)Nc3ccccc3)c2N)cc1OC | 3.9% | i | -1.2
COc1ccc(C2(CN(C(C)=O)C(C)=O)CCCC2)cc1OC | 5.7% | i | -0.11
C/C(CCc1oc2ccccc2c1-c1ccc(C)o1)=N/O | -4.1% | i | 0.57
COc1cc(C)c(Cl)cc1S(=O)(=O)N(C)C | -0.9% | i | 0.45
COCCCn1c(SCC(=O)OC2CCCCC2)nnc1-c1ccco1 | -3.5% | i | 1.5
CCC(=O)Nc1ccc(C(=O)n2ccc(C)n2)cc1 | 7.6% | i | -0.65
COc1cc(NS(=O)(=O)c2ccc(NC(=S)NC(=O)C3CCCC3)cc2)nc(OC)n1 | -3.2% | i | .
COC(=O)c1[nH]c(C)c(/C(O)=C2\C(=O)C(=O)N(CCN(C)C)C2c2cc(OC)ccc2OC)c1C (stereo unspecified) | -1.1% | i | 0.04
CC(C)NS(=O)(=O)c1ccc(NC(=O)C2CCCCC2)cc1 | -1.2% | i | .
CCCc1cc(Nc2cccc(OC)c2)n2ncnc2n1 | 5.4% | i | 0.86
O=C(CN(Cc1ccccc1)S(=O)(=O)c1ccccc1)NC1CC1 | 8.5% | i | 2
Cc1nn(C(=O)N2CCOCC2)c(C)c1C | 1.3% | i | .
N#Cc1ccccc1Cn1c(-c2cscn2)nc2ccccc21 | 2.9% | i | 0.61
COc1cc(CNCCO)ccc1OCC(=O)Nc1ccc(Br)cc1 | 6.0% | i | -0.17
COc1cc(N2CCCC2)c(OC)cc1/C=C(/C#N)c1ccc(Br)cc1 | -117% | i | .
CC(C)Cn1c(Br)nc2c1c(=O)n(CCC#N)c(=O)n2C | -9.3% | i | 0.22
COc1cc(N=Cc2c(O)[nH]c3ccccc23)cc(OC)c1OC | 4.6% | i | -1.2
c1cc(C(c2nnnn2C2CCCC2)N2CCOCC2)ccn1 (stereo unspecified) | -2.6% | i | 0.41
O=C(O)CSc1c2c(nc3cc(C(=O)N4CCOCC4)ccc13)CCCC2 | 2.6% | i | 1.7
CCOC(=O)c1sc(N(Cc2ccccc2)C(=O)CN2C(=O)CN(C)C2=O)nc1C | -7.1% | i | -0.75
N#CC(=C1SC=CS1)c1nc(-c2ccccc2)cs1 | -7.5% | i | -1.3
COc1ccc(C)cc1NC(=O)c1ccc(NC(=O)CC2SC(N3CCCC3)=NC2=O)cc1 (stereo unspecified) | -0.4% | i | 1.1
Cn1c(=O)c2c(nc(Br)n2Cc2c(F)cccc2Cl)n(C)c1=O | -1.6% | i | -1.1
NC(=O)C1CCN(Cc2nnnn2Cc2ccco2)CC1 | -4.5% | i | 1.1
CCN(CC)S(=O)(=O)c1ccc(-c2nnc(SCc3nnc(-c4ccccc4)o3)o2)cc1 | -3.7% | i | -1.2
Brc1ccc(-c2nnc3sc(CNCc4ccc5c(c4)OCO5)cn23)cc1 | -1.3% | i | -2.1
CCc1cc(=O)oc2cc(C)c(CN3CCCC(C)C3)c(O)c12 (stereo unspecified) | 2.8% | i | 0.35
Cc1cc2n(n1)C(c1cn(-c3ccccc3)nc1C)Nc1c(C)cccc1-2 (stereo unspecified) | -3.5% | i | .
COc1cc2nc(SCC(=O)NC3CC3)n(CCC3=CCCCC3)c(=O)c2cc1OC | -4.8% | i | -0.41
Cc1cc(N2C(=O)C3C4C=CC(C4)C3C2=O)no1 (stereo unspecified) | 2.4% | i | -0.24
O=c1cc(-c2ccccc2)[nH][nH]1 | -2.6% | i | .
CC(C)CC(c1nnnn1Cc1ccccc1)N1CCN(C(=O)c2ccco2)CC1 (stereo unspecified) | 2.9% | i | -0.86
O=c1[nH]c2ccc(Br)cc2c(-c2ccccc2)c1CN1CCOCC1 | 0.4% | i | -0.97
CCOC(=O)C(=CNc1cc(C)nn1-c1ccc(Cl)cc1)C(=O)OCC | 7.2% | i | .
CCOC(=O)c1c(NC(=O)CN2CCN(c3ccccn3)CC2)sc2c1CCCC2 | -4.3% | i | -0.66
CN(C)c1ccc(NC(=S)c2ccccn2)cc1 | -0.2% | 0.4µM* | -0.49
O=C(c1cnccn1)N(c1ccccc1)C1(C(=O)NC2CCCCC2)CCCCC1 | 1.0% | i | -0.69
COCCCn1c(SCc2nnc(-c3ccc(OC)c(OC)c3)o2)nc2ccccc2c1=O | -0.8% | i | .
Cc1ccc(S(=O)(=O)NC(=O)Nc2ccccc2F)cc1 | -1.8% | i | .
COc1cc2c(cc1OC)-c1cc(N3CCCc4ccccc43)nc(=O)n1CC2 | -2.8% | i | -0.24
CC(C)c1nc2n[nH]c(N)c2c2c1CSC(C)(C)C2 | 1.7% | i | .
COc1ccc(S(=O)(=O)N(C)CC(=O)NCCC2=CCCCC2)cc1C | -5.3% | i | .
CC(=O)Nc1ccc(S(=O)(=O)N(C)CC(=O)Nc2ccccc2N2CCOCC2)cc1 | -0.5% | i | -0.78
CCSc1nc(=O)n(-c2ccccc2)c(C)c1C(C)=S | -3.1% | i | .
CC1=C(C(N)=O)C(c2ccccc2)n2nc(-c3cccc(C)c3)nc2N1 (stereo unspecified) | -1.0% | i | 0.94
Cc1ccc(C2C(C(=O)O)c3ccccc3C(=O)N2C)c(C)c1 (stereo unspecified) | -1.4% | i | .
Cc1ccc(-n2nc(C(=O)NCc3ccco3)c3c4ccccc4n(C)c3c2=O)cc1 | -7.4% | i | 1
CSc1nnc(Cn2c(=O)sc3ccccc32)n1-c1ccccc1 | -4.8% | i | 1.1
O=C(N/N=C/c1ccc(O)c(O)c1)c1ccc(CSc2cccc3cccnc23)cc1 | -2.7% | i | .
CCOC(=O)CC(NC(=O)c1ccc(C)cc1)c1ccc(C)cc1 (stereo unspecified) | -1.1% | i | .
Oc1c(C=Nc2cccc3nsnc23)ccc2ccccc12 | -7.9% | i | .
CCOC(=O)CSC1=C(C#N)C(c2ccccc2OCC)C(C#N)C(=O)N1 (stereo unspecified) | -3.1% | i | -0.34
O=C(N1CCN(CCO)CC1)N1c2ccccc2C=Cc2ccccc21 | -2.5% | i | -0.66
COc1ccc2c(-c3ccccc3)cc3nnnn3c2c1 | -5.6% | i | -0.2
O=C(C1Cc2ccccc2CN1S(=O)(=O)c1ccc(F)cc1)N1CCCCCC1 (stereo unspecified) | -0.8% | i | -0.2
CCC1(C)Cc2c(C#N)c(N)sc(=S)c2CO1 (stereo unspecified) | 11% | i | -0.14
O=C1CC(C(=O)Nc2ccccc2)C2(CCCC2)O1 (stereo unspecified) | -1.6% | i | 0.68

By substructure: the entries above with an NH in an aromatic ring.
SMILES | Hsc70 | MT1-MMP reporter | WNV NS2B-NS3 inh
CN(C)CCNc1nc2c(c(=O)[nH]c(=O)n2C)n1CCCc1ccccc1 | 6.6% | i | 2.7
COC(=O)c1[nH]c(C)c(/C(O)=C2\C(=O)C(=O)N(CCN(C)C)C2c2cc(OC)ccc2OC)c1C (stereo unspecified) | -1.1% | i | 0.04
COc1cc(N=Cc2c(O)[nH]c3ccccc23)cc(OC)c1OC | 4.6% | i | -1.2
O=c1cc(-c2ccccc2)[nH][nH]1 | -2.6% | i | .
O=c1[nH]c2ccc(Br)cc2c(-c2ccccc2)c1CN1CCOCC1 | 0.4% | i | -0.97
CC(C)c1nc2n[nH]c(N)c2c2c1CSC(C)(C)C2 | 1.7% | i | .

Continuation:
SMILES | Hsc70 | MT1-MMP reporter | WNV NS2B-NS3 inh
CCOc1ccc(CCNC(=O)C2CCN(c3nn4c(=O)cc(C)nc4s3)CC2)cc1 | 5.0% | i | -0.96
COc1ccc(S(=O)(=O)N(CCN2CCOCC2)Cc2cc(OC)ccc2OC)cc1 | 0.9% | i | -0.52
CCOc1ccccc1C1CC(=O)NC(SCC)=C1C#N (stereo unspecified) | 1.1% | i | -0.03
CCOc1ccc(NC(=O)C2CC(=O)N(C(C)C)C2)cc1 (stereo unspecified) | 5.7% | i | 0.44
CC(C)[C@H](NC(=O)NCCc1ccc(F)cc1)C(=O)O | -2.6% | i | 0.01
CCCn1nc(CC(=O)OCC)c2ccccc2c1=O | -3.2% | i | .
CC(C)(C)NC(=O)CSC(=Nc1ccc(F)cc1)NC#N | 4.5% | i | .
CC(=O)O[C@]1(C(C)=O)CC[C@H]2[C@@H]3C=C(Cl)C4=CC(=O)CC[C@]4(C)[C@H]3CC[C@@]21C | 1.0% | i | 0.7
COC(=O)c1c(C)nc(C)c2c(=O)oc3ccccc3c12 | -4.9% | i | 0.41
Nc1c(C(=O)NCC2CCCO2)c2nc3ccccc3nc2n1-c1ccccc1 (stereo unspecified) | -6.1% | i | 3.2
CCCNC(=O)NC(=O)CSc1ncc(C(F)(F)F)cc1Cl | -0.1% | i | -0.34
COc1ccc(Cl)cc1N/C(N)=N/c1nc(CSc2ccc(C)cc2)cc(=O)[nH]1 | 3.6% | i | .
O=C(COC(=O)c1ccccn1)NC12CC3CC(CC(C3)C1)C2 | -4.7% | i | .
COC(=O)c1ccccc1OC(=O)c1ccc(Br)o1 | -0.3% | i | 2.2
Cc1cc(CNC(=O)Cc2c(F)cccc2Cl)nn1C | 7.1% | i | -0.89
CCOC(=O)N1CCN(C(=O)C(NS(=O)(=O)c2cccc3nsnc23)c2ccccc2)CC1 (stereo unspecified) | 5.6% | i | -1.2
CCN(CC)C(=O)CSc1nc(O)cc(=O)n1-c1ccccc1OC | 0.0% | i | 1.4
CCCn1c(=O)c2ccccc2n2c(SCC(=O)/C(C#N)=C(\C)N)nnc12 | -4.4% | i | -0.64
CC(C)CC(=O)Nc1nc2ccc(S(=O)(=O)N3CCOCC3)cc2s1 | 0.7% | i | .
Cc1ccccc1OCc1nc2ccccc2c(=O)n1N | -2.4% | i | .
COC(=O)c1ccc(CSc2nnc3sc4ccccc4n23)o1 | 1.9% | i | 0.63
CC(=O)OC(C(=O)NCc1ccco1)c1cccnc1 (stereo unspecified) | -5.1% | i | 0.08
